Compound activity: PubChem, Center for Chemical Genomics, University of Michigan
CDC25B CDK2 inh: primary biochemical HTRF screen for blockers of M-phase inducer phosphatase 2 binding to CDK2/cyclin A. P30305+P24941. HTRF CDC25B-CDK2/CyclinA binding, anti-His/anti-Flag; stronger effect = higher value. z-score (no concentration beside the values). 0.72% of 94,000 active. AID 1259370, 2018;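 also: score is relative to mean and SD of negative controls; strong numbers were not always called active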
TAR Tat displ: TAR RNA-Tat peptide displacers, HIV-1, primary screen, biochemical, FRET, FAM/TAMRA-labeled Tat; HIV-1 TAR RNA, Tat peptide displacement FRET; stronger effect = higher value; z-score (concentration not given with the values); 0.6% of 100,000 active; AID 1259389, 2018;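 also: score is relative to mean and SD of negative controls; some compounds called inactive have numbers as strong as hits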
Starred values were filed as active, the others as inactive.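 The calls were made as follows: active = z-score from 3 up in half or more of its runs; inactive = the rest.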

For CN(Cc1ccccc1)c1ncnc2c1sc1nc(N3CCOCC3)c3c(c12)CC(C)(C)OC3 the results were CDC25B CDK2 inh -2.2 and TAR Tat displ 2.2.
CC1=Nc2cc(C(=O)NCCN3CCOCC3)ccc2Sc2c(C)ccc(C)c21 was read as CDC25B CDK2 inh 0.56.
Screening Cc1ccc(C)c(NS(=O)(=O)c2cc3[nH]c4c(c3cc2C)C(=O)CC(C)(C)C4)c1 returned TAR Tat displ -0.25.
Screening Cc1nc2nncn2c(NCc2ccccc2Cl)c1C returned CDC25B CDK2 inh 0.57 and TAR Tat displ 0.09.
O=C(NC1CCCC1)c1cnn(-c2cccc(F)c2)c1-n1cccc1 was read as TAR Tat displ 0.03.
Screening O=C(CC(=O)C(F)(F)F)c1cccnc1 returned CDC25B CDK2 inh -1.1.
For CC(C)c1nn2cc(-c3cccc(Br)c3)nc2s1 the results were CDC25B CDK2 inh 0.01 and TAR Tat displ 0.85.
O=C(O)CC(CC(=O)N1CCN(C(=O)c2ccco2)CC1)c1ccccc1 (stereo unspecified) was read as CDC25B CDK2 inh 0.42.
`Fc1ccc(-c2csc3ncnc(N4CCN(Cc5ccc6c(c5)OCO6)CC4)c23)cc1` gave TAR Tat displ -1.6.
Screening CCc1ccc(C2NC(=O)NC3=C2C(=O)CC(C)(C)C3)cc1 (stereo unspecified) returned CDC25B CDK2 inh 0.32.
Screening CN(CC(=O)NC1CCCCCC1)S(=O)(=O)c1ccc2c(c1)CCC(=O)N2 returned CDC25B CDK2 inh 0.14.
For Clc1ccc(CN2CCc3nc(N4CCOCC4)ncc3C2)cc1 the results were TAR Tat displ 1.6.
`CSCCC1Oc2ccccc2C2CC(c3cc(C)ccc3O)=NN12` (stereo unspecified) gave CDC25B CDK2 inh -0.32 and TAR Tat displ -0.02.
Screening O=C(Nc1ccc(F)cc1)c1nnc(C2CCN(C(=O)C3CCCCC3)CC2)s1 returned TAR Tat displ 1.8.
CCOCCOC(=O)C(C)Oc1ccc2c(=O)c(Oc3cc(C)cc(C)c3)coc2c1 (stereo unspecified) was read as CDC25B CDK2 inh -0.54 and TAR Tat displ -0.02.
`Cc1nnc(NCCc2ccccc2)c2c1nnn2Cc1ccc(F)cc1` gave CDC25B CDK2 inh -1.6 and TAR Tat displ 0.62.
Screening COc1cc2c(cc1OC)C(c1cc(Br)c(OC)c(OC)c1)CC(=O)N2 (stereo unspecified) returned CDC25B CDK2 inh -0.97.
Screening COc1ccc(NS(=O)(=O)c2ccc(/C=C/c3onc(C)c3[N+](=O)[O-])s2)cc1Cl returned TAR Tat displ -4.4.
`O=C(c1cccc(N2CCCS2(=O)=O)c1)N1CCCC1` gave TAR Tat displ -0.12.
For O=C1CCc2cc(S(=O)(=O)Nc3ccccc3)cc3c2N1CC3 the results were TAR Tat displ 1.5.
Screening O=C(CCCc1nc(-c2ccco2)no1)NC1CCCCC1 returned CDC25B CDK2 inh -0.99 and TAR Tat displ -0.3.
O=c1c(S(=O)(=O)c2ccccc2)cn(Cc2ccccc2)c2cc(F)c(F)cc12 was read as CDC25B CDK2 inh -1.2 and TAR Tat displ 0.94.
C=C1SC(=Nc2ccccc2Cl)N(C(=O)c2ccc([N+](=O)[O-])cc2)C1(C)C was read as CDC25B CDK2 inh -0.16.
For Nc1ccc(N2CCn3c(nc4ccccc43)C2)cc1 the results were CDC25B CDK2 inh 13* and TAR Tat displ -1.7.
Screening Cc1ccc(S(=O)(=O)Nc2ccc3c(c2)N(S(=O)(=O)c2cccs2)CCC3)cc1C returned TAR Tat displ 0.23.
Screening COc1cc(Cl)c(NS(=O)(=O)c2ccc3c(c2)CCCC(=O)N3)c(OC)c1 returned TAR Tat displ 1.4.
For CC(=O)ONC(=O)c1ccc([N+](=O)[O-])cc1 the results were CDC25B CDK2 inh -0.96.
Screening O=S1(=O)CCCCN1c1ccc(S(=O)(=O)N2CCc3ccccc32)cc1 returned TAR Tat displ 0.96.
For COc1ccc(C(C#N)=C2SCCS2)cc1 the results were CDC25B CDK2 inh -1.5.
CC(C)=CCc1c(O)cc2oc(C)cc(=O)c2c1O was read as TAR Tat displ 0.44.
`CSC(=NCc1ccc(-c2cccs2)s1)NC#N` gave CDC25B CDK2 inh -1.7.
O=C1C2N=NN(Cc3ccccc3F)C2C(=O)N1c1ccccc1 (stereo unspecified) was read as CDC25B CDK2 inh -0.35 and TAR Tat displ 0.19.
For CCN(CC)C(=O)C1=CC(c2ccc(F)cc2)=NS(=O)(=O)N1C the results were CDC25B CDK2 inh -1.9 and TAR Tat displ 1.4.
CCOC(=O)c1c(CSC#N)oc2ccc(OC(C)=O)cc12 was read as CDC25B CDK2 inh 2.4 and TAR Tat displ -3.1.
For CCS(=O)(=O)Nc1ccc2c(c1)N(S(=O)(=O)c1ccc(F)cc1)CCC2 the results were TAR Tat displ 0.08.
Screening Cn1c(=O)oc2cc(NC(=O)CN3CCCC3)ccc21 returned CDC25B CDK2 inh -2.5 and TAR Tat displ 0.33.
Cc1cc(C)cc(N2C(=O)N(CC(=O)NC(C)C)C3CS(=O)(=O)CC32)c1 (stereo unspecified) was read as CDC25B CDK2 inh -0.9 and TAR Tat displ 3.7.
For O=C1CCC([N+](=O)[O-])C(c2cccc(OCc3ccccc3)c2)N1 (stereo unspecified) the results were CDC25B CDK2 inh 0.07 and TAR Tat displ 2.
CCN1CCCC1CNC(=O)c1ccc(-n2ccc3ccccc32)s1 (stereo unspecified) was read as TAR Tat displ 0.24.
Screening Cc1ccc(SCc2cn3c(C)cccc3n2)cc1 returned CDC25B CDK2 inh -0.07 and TAR Tat displ -3.6.
For COc1cccc(CNC(=O)Cn2nc3cnc4ccccc4n3c2=O)c1OC the results were CDC25B CDK2 inh -0.51 and TAR Tat displ 0.92.
`O=C(CN1Cc2ccccc2C1=O)Nc1ccc(F)c(F)c1` gave TAR Tat displ -1.2.
For CCOC(=O)c1sc(NC(=O)CSc2nnc3ccc4ccccc4n23)nc1C the results were CDC25B CDK2 inh 0.16 and TAR Tat displ 1.2.
CC(C)c1nnc(N2C(=O)c3oc4ccccc4c(=O)c3C2c2ccco2)s1 (stereo unspecified) was read as CDC25B CDK2 inh -0.73.
Screening COc1ccc2occ(CC(=O)Nc3sc4c(c3C(N)=O)CCCC4)c2c1 returned CDC25B CDK2 inh -1 and TAR Tat displ 0.43.
For COc1ccc(NS(=O)(=O)c2ccc(-c3ccc(=O)[nH]n3)o2)cc1 the results were TAR Tat displ -0.4.
CCOC(=O)c1cc(C(C)(C)C)oc1CNC(=O)c1c(C)oc2c1CCCC2 was read as CDC25B CDK2 inh -1.7.
O=C(Nc1ncc(Cc2ccccc2)s1)c1cc2ccccc2c(=O)o1 was read as CDC25B CDK2 inh -1.5 and TAR Tat displ -0.27.
Screening CC(C)N(Cc1ccccc1)S(=O)(=O)c1ccc(CN2C(=O)c3cccnc3C2=O)cc1 returned TAR Tat displ 0.67.
Screening CCn1c(C(=O)N2CCCC(C(=O)N3CCN(c4ccccn4)CC3)C2)cc2sccc21 (stereo unspecified) returned CDC25B CDK2 inh -0.2 and TAR Tat displ -0.94.
Screening CCNc1nc(N2CCN(CC)CC2)nc2c1cnn2C returned TAR Tat displ 1.5.
COc1ccc(-c2cnc(C)o2)cc1S(=O)(=O)Nc1cc(C)ccc1C was read as TAR Tat displ 1.4.
For O=C1NN(c2ccc(I)cc2)C(=O)/C1=C\c1ccc(-c2ccc3c(c2)C(=O)NC3=O)o1 the results were CDC25B CDK2 inh -4.2.
For Clc1ccc(NCC2CCCCC2)nn1 the results were CDC25B CDK2 inh -0.08 and TAR Tat displ 1.4.
O=C(O)c1cnn(-c2ccccc2)c1-n1cccc1 was read as TAR Tat displ 1.7.
Cc1ccc(C(CNC(=O)c2cc(=O)c3cc(Cl)ccc3o2)N2CCCCC2)o1 (stereo unspecified) was read as CDC25B CDK2 inh -2.3 and TAR Tat displ 0.55.
Screening Nc1ccccc1SCc1cc(=O)n2nc(C3CC3)sc2n1 returned TAR Tat displ 0.89.
O=C(c1cccn1-c1nnc(N2CCCC2)s1)N1CCN(c2ccc(F)cc2)CC1 was read as TAR Tat displ 0.48.
CCOC(=O)c1nc(-c2ccccc2)sc1-c1ccnn1C(=O)Nc1ccc(Cl)cc1 was read as CDC25B CDK2 inh -4.3.
`CCN1CCN(c2nc3ncn(CC(=O)Nc4cc(F)ccc4F)c(=O)c3s2)CC1` gave TAR Tat displ 1.7.

The last 7 compounds of the part before come first, to join the parts.
For Clc1ccc(NCC2CCCCC2)nn1 the results were CDC25B CDK2 inh -0.08 and TAR Tat displ 1.4.
O=C(O)c1cnn(-c2ccccc2)c1-n1cccc1 was read as TAR Tat displ 1.7.
Cc1ccc(C(CNC(=O)c2cc(=O)c3cc(Cl)ccc3o2)N2CCCCC2)o1 (stereo unspecified) was read as CDC25B CDK2 inh -2.3 and TAR Tat displ 0.55.
Screening Nc1ccccc1SCc1cc(=O)n2nc(C3CC3)sc2n1 returned TAR Tat displ 0.89.
O=C(c1cccn1-c1nnc(N2CCCC2)s1)N1CCN(c2ccc(F)cc2)CC1 was read as TAR Tat displ 0.48.
CCOC(=O)c1nc(-c2ccccc2)sc1-c1ccnn1C(=O)Nc1ccc(Cl)cc1 was read as CDC25B CDK2 inh -4.3.
`CCN1CCN(c2nc3ncn(CC(=O)Nc4cc(F)ccc4F)c(=O)c3s2)CC1` gave TAR Tat displ 1.7.
Cc1cc(NS(=O)(=O)c2ccc(NS(=O)(=O)c3cc(Cl)c(Cl)cc3Cl)cc2)no1 was read as CDC25B CDK2 inh -0.33.
CCO/C([O-])=N/c1c[n+](N2CCOCC2)no1 was read as CDC25B CDK2 inh 0.32 and TAR Tat displ -0.24.
CCOC(=O)N1CCN(C(=O)CN2C(=O)c3ccccc3S2(=O)=O)CC1 was read as CDC25B CDK2 inh -1.1 and TAR Tat displ 0.68.
Cc1nc(-c2cccs2)c(CC(=O)N2CCN(c3ccccn3)CC2)s1 was read as CDC25B CDK2 inh -1.3 and TAR Tat displ -1.2.
`O=C(CCSc1nnc2ccccn12)Nc1cccc(-c2nc3ccccc3s2)c1` gave CDC25B CDK2 inh -0.58 and TAR Tat displ -0.14.
Screening COc1ccccc1-c1nc(=S)c2c([nH]1)Oc1ccccc1C2 returned CDC25B CDK2 inh -2.1 and TAR Tat displ 0.81.
Screening CCCc1nc2sc3c(NCCN(CC)CC)ncnc3c2c2c1COC(C)(C)C2 returned CDC25B CDK2 inh -1.5 and TAR Tat displ -0.79.
`CC(C)N(C(=O)CSc1nc2ccc(Cl)cc2[nH]1)c1ccccc1` gave CDC25B CDK2 inh -1.9 and TAR Tat displ 1.4.
Screening CCOc1nc(-c2ccccc2)ccc1-c1noc(-c2ccc(OC)cc2)n1 returned CDC25B CDK2 inh -0.41 and TAR Tat displ 1.7.
Screening COC(=O)c1cnn2c1NCN(CCN1CCc3ccccc3C1)C2 returned CDC25B CDK2 inh -1.6 and TAR Tat displ -1.5.
`CCCS(=O)(=O)N1CCN(Cc2noc(CCC(=O)N3CCOCC3)n2)CC1` gave TAR Tat displ 0.23.
CCSc1nc(=O)n(-c2ccc(C)cc2)c2c1CCC2 was read as CDC25B CDK2 inh 0.2 and TAR Tat displ 0.65.
`COc1cccc(Nc2c(S(=O)(=O)c3ccccc3)cnc3cc(OC)c(OC)cc23)c1` gave CDC25B CDK2 inh 0.2 and TAR Tat displ 1.9.
O=C(Cn1c(=O)oc2cc(S(=O)(=O)N3CCCCCC3)ccc21)NCc1cccs1 was read as CDC25B CDK2 inh -2.3.
`O=C(NCCn1nc(-c2ccc(F)cc2)ccc1=O)c1ccc(F)cc1F` gave TAR Tat displ 0.51.

3 entries drawn at random from those above:
Screening CCOc1nc(-c2ccccc2)ccc1-c1noc(-c2ccc(OC)cc2)n1 returned CDC25B CDK2 inh -0.41 and TAR Tat displ 1.7.
`CC(C)N(C(=O)CSc1nc2ccc(Cl)cc2[nH]1)c1ccccc1` gave CDC25B CDK2 inh -1.9 and TAR Tat displ 1.4.
`O=C(CCSc1nnc2ccccn12)Nc1cccc(-c2nc3ccccc3s2)c1` gave CDC25B CDK2 inh -0.58 and TAR Tat displ -0.14.

Following part.
`COc1ccc(CN2N=NC3C(=O)N(c4ccc(F)c(F)c4)C(=O)C32)cc1` (stereo unspecified) gave CDC25B CDK2 inh -0.31 and TAR Tat displ 0.47.
`CSc1n[nH]c(NC(=O)c2ccccc2Cl)c1S(=O)(=O)c1ccc(Cl)cc1` gave CDC25B CDK2 inh 2.1.
Screening CCOC(=O)c1c(C)[nH]c(C)cc1=O returned CDC25B CDK2 inh -1.1.
Screening O=C(Cc1ccccc1F)NCCc1c[nH]c2ccccc12 returned CDC25B CDK2 inh -2.5.
`Cc1cccc(N2CCN([C@H]3CS(=O)(=O)C[C@@H]3S(=O)(=O)c3ccc(F)cc3)CC2)c1C` gave CDC25B CDK2 inh -1.4 and TAR Tat displ 0.56.
CCN1c2cc(C)ccc2-n2cccc2C12CCN(C(=O)Nc1cc(C)cc(C)c1)CC2 was read as TAR Tat displ 0.75.
Cc1nnc(N2CCN(C(=O)Nc3ccc4c(c3)OCCO4)CC2)c2nn(-c3ccccc3)c(C)c12 was read as TAR Tat displ -0.22.
`CCOC(=O)CCCCC(=O)c1[nH]c(=O)[nH]c1CN1CCCCC1` gave CDC25B CDK2 inh -0.69 and TAR Tat displ 0.39.
Screening O=c1c2cccnc2nc(SCc2ccccc2F)n1Cc1ccccc1 returned CDC25B CDK2 inh -2.2.
Screening CNC(=O)c1c(NC(=O)c2ccccc2F)sc2c1CCC2 returned TAR Tat displ -5.1.
`N=C1C(c2nc3ccccc3c(=O)[nH]2)=C(O)CN1c1ccc(Cl)cc1` gave CDC25B CDK2 inh -0.69 and TAR Tat displ 2.
`CNc1ccc(C(C)=O)cc1N` gave CDC25B CDK2 inh -1.2.
Screening O=C1C2CCCN2C(c2cccc(Br)c2)N1c1ccc(Cl)cc1 (stereo unspecified) returned CDC25B CDK2 inh -0.49 and TAR Tat displ -0.15.
`CSc1ccc(-c2nc3cnccn3c2Nc2ccc(C)cc2)cc1` gave CDC25B CDK2 inh 1.2.

Compounds were not picked by outcome; overall some 0.89% were active at least once.
